Rango-impB inh = Rango-importin beta binding inhibition; Q14974; Rango CFP/YFP FRET sensor + importin beta, 45 min; Potency, µM (top dose mostly 92.2 µM), for the others: at the top dose inhibition of complex formation; 340,000 tested, 0.031% active; active = rising FRET ratio curve, often small or poorly fitted; inconclusive = mostly compound fluorescence or quenching in the first reads; inactive = flat curves in all reads;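 note: potency is the fitted concentration of half-maximal effect; 0% = DMSO wells and 100% = buffer wells lacking importin beta; nearly all actives have a fitted effect of over 15% in size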
Target sequence (Q14974 whole entry, looked up): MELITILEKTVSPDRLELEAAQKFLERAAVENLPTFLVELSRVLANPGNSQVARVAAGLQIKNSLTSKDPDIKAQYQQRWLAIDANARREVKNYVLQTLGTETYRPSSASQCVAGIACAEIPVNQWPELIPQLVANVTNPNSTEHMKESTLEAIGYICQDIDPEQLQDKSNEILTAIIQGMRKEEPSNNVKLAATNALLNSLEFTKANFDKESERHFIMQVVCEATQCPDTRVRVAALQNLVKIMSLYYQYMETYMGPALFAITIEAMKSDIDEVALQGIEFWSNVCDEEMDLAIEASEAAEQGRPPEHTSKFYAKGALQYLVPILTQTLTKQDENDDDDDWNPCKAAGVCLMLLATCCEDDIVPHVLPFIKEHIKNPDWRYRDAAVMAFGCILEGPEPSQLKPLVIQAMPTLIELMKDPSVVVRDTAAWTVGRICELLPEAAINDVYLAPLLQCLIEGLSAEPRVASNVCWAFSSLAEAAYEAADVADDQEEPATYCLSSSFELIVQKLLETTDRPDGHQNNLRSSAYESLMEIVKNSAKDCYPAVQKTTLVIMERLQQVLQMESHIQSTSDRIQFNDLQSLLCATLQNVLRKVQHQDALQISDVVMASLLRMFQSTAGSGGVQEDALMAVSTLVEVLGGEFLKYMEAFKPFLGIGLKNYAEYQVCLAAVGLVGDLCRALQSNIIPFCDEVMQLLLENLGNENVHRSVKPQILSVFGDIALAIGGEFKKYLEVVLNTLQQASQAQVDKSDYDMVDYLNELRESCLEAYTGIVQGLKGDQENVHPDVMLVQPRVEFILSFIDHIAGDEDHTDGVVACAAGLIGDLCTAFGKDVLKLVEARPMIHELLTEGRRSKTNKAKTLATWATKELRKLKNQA
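FRET biosensor Rango (snurportin 1 IBB between N-terminal EYFP and C-terminal Cerulean), 50 nM in PBS/1 mM DTT/0.02% Tween-20/0.1% BSA, preincubated 5 min RT with compound; 0.125 microM importin beta added, 45 min RT, CFP/YFP FRET ratio read.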
Rango dissoc inh = prevents RanGTP from dissociating the Rango-importin beta complex; Biochemical FRET Rango-importin beta, RanGTP-induced dissociation; 340,000 tested, 0.071% active; Potency, µM (titrated, usually from 46.1 µM), for the others: at the highest dose activity change, negative = inhibition; O95149+P62826; active means falling FRET ratio curve, often poorly fitted, with flat reads before Ran was added; inconclusive means other falling curves, or compound fluorescence or quenching; inactive means flat or rising ratio curve;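 note: potency is the fitted concentration of half-maximal effect; % of control where 0% means no effect; nearly all actives have a fitted effect of over 45% in size; -100% = wells without RanGTP and RCC1; the record marks most hits as doubtful in a second field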
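Rango/importin beta premix (0.1/0.25 uM final), PBS + 1 mM DTT + 0.02% Tween-20 + 0.1% BSA; cpd 5 min RT; FRET pre-read; + RanGTP-RCC1 (0.6 uM Ran, 2 mM GTP, 0.2 uM RCC1); 45 min RT; FRET post-read, ex 430, em 486/530 nm.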
miR-21 FLuc = miR-21 reporter, rising signal; HeLa miR-21 FLuc reporter, luciferase, 48 h; Potency, µM (doses to about 38.3 µM), for the others: at the highest dose reporter change, positive = more light; 340,000 tested, under 10 active; AID 2288; active = well fitted rising curve with a large enough effect; inconclusive = small, poorly fitted or top-dose-only effect; inactive = no such curve, though single readings can be large or run the other way;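 note: % of control where 0% means no effect; miR-21 action dims this reporter so a rising signal means less miR-21 action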
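Compounds were titrated across several concentrations (up to approximately 40 uM) and incubated 48 hours with HeLa miR-21-FLuc reporter cells (miR-21 target sequence downstream of FLuc, endogenous miR-21). Readout was firefly luciferase luminescence after lytic detection reagent.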
GLA inh pH 4.5 = blocks human alpha-galactosidase A at pH 4.5 | P06280 | purified enzyme, 4-MU-alpha-Gal fluorescence, pH 4.5 | activity change, negative = inhibition, % at 105 µM | 230,000 tested, under 10 active | AID 1467; inconclusive = small, poorly fitted or top-dose-only inhibition, or a rising curve; inactive = flat fitted curve, though single readings scatter; no compound was filed as active;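 note: 0% = full activity with enzyme and -100% = basal without enzyme; dose as in the result columns while the protocol names 77 µM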
An asterisk follows results filed as active; ? = inconclusive; · = no result given; [ ] = remark or other dose. A portion of the library, so the mix of outcomes need not match the whole.

Below each compound – GLA inh pH 4.5, miR-21 FLuc, Rango-impB inh, Rango dissoc inh
1	COc1ccc(N2C(=O)C3C(C2=O)C(C(=O)c2ccccc2)N2CCCC32)cc1 (configuration not stated)
    -1, -7%, ?, -5%
2	CC(C)c1cc(=O)n2[nH]c(SCc3ccccc3)nc2n1
    ·, -9%, 1.3%, 5%
3	COc1ccc(CNC(=O)CCS(=O)(=O)c2ccc3c(c2)NC(=O)CS3)cc1
    ·, 3%, 2.8%, 0%
4	COc1ccc(C(=O)NC2CCCc3ccccc32)cc1[N+](=O)[O-] (configuration not stated)
    ·, 13%, 0.0%, 29%
5	CN(C)S(=O)(=O)c1cccc(NC(=O)Cc2ccc(Cl)cc2)c1
    0, 6%, 0.4%, -5%
6	CC1=CC(C)(C)NC(=S)N1c1ccc(C)c(C)c1
    -7, 3%, 4.6%, 3%
7	COc1ccc(NC(=O)c2ccccc2)cc1NS(=O)(=O)c1ccc(F)cc1
    1, -5%, -0.2%, -15%
8	Cc1cc(C)nc(SCc2ccccc2C#N)n1
    5, -16%, 1.5%, 11%
9	COc1ccc(C)cc1NC(=O)CNC(=O)c1sc2ccccc2c1Cl
    ·, ·, 0.2%, 2%
10	CCCNc1cc(=O)n(C)c(=O)n1C
    1, -5%, -0.7%, 1%
11	O=C(O)COc1ccccc1/C=N/NC(=O)Cc1ccccc1
    ·, 0%, -1.0%, -5%
12	Cc1cccnc1NC(=O)C(C)Oc1ccccc1 (configuration not stated)
    4, -3%, -0.3%, 1%
13	N#Cc1ccccc1S(=O)(=O)N1CCN(C(=O)[C@@H]2CCCN2C(=O)c2cccs2)CC1
    ·, ·, 2.5%, -5%
14	Cc1cc(Nc2ccc(Br)cc2)n2nc(C)nc2n1
    -15, 0%, -3.6%, 16%
15	CC(=O)Nc1ccc(S(=O)(=O)N2CCN=C2c2ccccc2)cc1
    ·, 1%, -2.9%, -17%
16	COc1cccc(C=Nc2ccccc2C#N)c1O
    1, 1%, -4.0%, 6%
17	Cc1ccc(-n2c(C)cc(/C=C(\C#N)C(=O)NCC3CCCO3)c2C)cc1 (configuration not stated)
    1, -10%, -2.5%, -4%
18	O=C(COc1ccc(Cl)cc1)Nc1nnc(-c2ccco2)o1
    -10, -1%, 0.3%, -19%
19	c1ccc(CSc2nnc(-c3c[nH]c4ccccc34)o2)cc1
    -13, -48%, 3.3%, -11%
20	COc1ccccc1OCC(=O)NNc1c2ccccc2nc2ccccc12
    -9, 28%, 2.6%, -20%
21	COc1cc(OC)cc(C(=O)OCC(=O)Nc2sccc2C(N)=O)c1
    ?, -2%, 1.0%, -11%
22	Nc1ccc(SC(F)(F)F)cc1
    10, -2%, -0.6%, -1%
23	Cc1ccc(C(=O)N/N=C/c2ccc([N+](=O)[O-])s2)cc1
    4, ?, 0.9%, -12%
24	O=C(CN1C(=O)C2C3c4ccccc4C(c4ccccc43)C2C1=O)Nc1cccc(C(=O)O)c1 (configuration not stated)
    -1, -6%, 3.3%, 1%
25	C=CCc1ccccc1OCC(O)CNC1CCCC1 (configuration not stated)
    ·, -4%, 2.8%, 22%
26	CC(=O)OCC1OC(OC(C)=O)C(NC(=O)Cc2ccccc2)C(OC(C)=O)C1OC(C)=O (configuration not stated)
    -3, -2%, -1.0%, 10%
27	Cc1cc(-c2nnc(CCC(=O)NCc3cc(F)cc(C(F)(F)F)c3)o2)no1
    ·, -30%, -0.7%, -2%
28	O=C(Nc1ccc(Nc2ccccc2)cc1)Nc1ccccc1Cl
    -5, -44%, -0.4%, 11%
29	COC(=O)c1ccc(COC(=O)CCS(=O)(=O)c2ccc(C)cc2)cc1
    -3, -2%, 0.1%, -22%
30	O=c1ccc(Br)c[nH]1
    0, 0%, -1.3%, 0%
31	Cc1ccccc1Nc1nnc(SCC2CCCCO2)s1 (configuration not stated)
    3, -26%, -1.3%, 7%
32	O=C(NCc1ccco1)c1ccc(CN2CCOCC2)cc1
    2, -8%, 0.5%, -14%
33	COCC(C)n1c(C)cc(C(=O)COC(=O)c2n[nH]c3ccccc23)c1C (configuration not stated)
    -10, -35%, -6.2%, 18%
34	CC(C)CC(=O)Nc1nnc(CSCc2ccc(F)cc2)s1
    6, 0%, -0.9%, -5%
35	O=C(CN1C(=O)NC2(CCCc3ccccc32)C1=O)NCC(F)(F)F (configuration not stated)
    ·, 3%, -1.6%, -6%
36	O=C(c1cnn2c(C(F)F)cc(-c3ccccc3)nc12)N1CCSCC1
    3, -9%, -0.8%, 7%
37	CC(C)(C)[C@H]1C=C(C(=O)N2CCN(Cc3ccc4c(c3)OCO4)CC2)O[C@@H](OCc2ccc(CO)cc2)C1
    -8, 4%, 0.0%, -9%
38	COc1ccc(NC(=O)C2C3C=CC4(O3)C2C(=O)N(CCN2CCCCC2)C4C(=O)NC2CCCC(C)C2C)cc1 (configuration not stated)
    ·, 1%, 1.5%, 1%
39	O=C(COC(=O)/C=C/C(=O)N1CCN(c2ccccc2)CC1)NC(c1ccccc1)c1ccccc1
    -14, 14%, -2.1%, -15%
40	COc1ccc(/C=C2\SC(=O)N(CCNC(=O)C3CCN(S(=O)(=O)c4cccs4)CC3)C2=O)cc1
    -5, -40%, 3.2%, 4%
41	CCOC(=O)c1csc(-c2ccc3c(c2)CCO3)n1
    2, 37%, 4.6%, 27%
42	COc1ccccc1C(=O)c1nc2ccccc2n1C
    ·, -9%, 0.4%, 1%
43	O=C1COc2ccc(C(=O)COC(=O)/C=C/c3ccco3)cc2N1
    ·, ·, 1.8%, -13%
44	CCn1ncc(C2=NOC(C(=O)Nc3cccc(C(C)=O)c3)C2)c1C (configuration not stated)
    4, 2%, 0.7%, -11%
45	CN(CC(=O)Nc1cccc(F)c1)C(=O)c1cccnc1Sc1ccccc1Cl
    ·, ·, -1.1%, -7%
46	N#Cc1ccccc1Sc1ccccc1C(=O)OCC(=O)NC1CCS(=O)(=O)C1 (configuration not stated)
    -1, 1%, -1.2%, 0%
47	O=C(CSc1nc(C2CC2)nc2ccccc12)Nc1cccc(O)c1
    ·, 0%, 1.0%, ?
48	O=C(Nc1ccncc1)c1ccccc1[N+](=O)[O-]
    2[21.1 µM], 24%, -1.4%, -14%
49	CN1C[C@H]2CON(C)[C@H]2C[C@H]1c1cccc(-c2ccccc2)c1
    ·, ·, -0.3%, 8%
50	Cc1ccc(S(=O)(=O)NC(C)C(=O)Nc2cccc([N+](=O)[O-])c2)cc1 (configuration not stated)
    -7, -1%, 4.5%, 13%
51	CCc1nn(CC(=O)NCCCN(C)Cc2ccccc2)c(=O)c2cc3sc(C)cc3n12
    ·, -1%, 5.9%, -12%
52	CN1C(=O)CC(N2CCN(c3ccccc3)CC2)C1=O (configuration not stated)
    ·, ·, 2.3%, -15%
53	CN(CCOc1ccc(-c2ccn(S(=O)(=O)c3ccc(Cl)cc3)n2)cc1)c1ccccn1
    -2, 14%, 0.1%, 0%
54	CC1(C)CC(=O)c2c(O)cc(OCc3ccc(Br)cc3)cc2O1
    8, -75%, 0.4%, -2%
55	Cc1ccc(C(NC(=O)N2CCOCC2)=C(Cl)Cl)cc1F
    -10, 12%, -0.3%, 13%
56	Nc1nc(OCc2ccccc2)c2[nH]cnc2n1
    1, ·, -0.6%, 0%
57	O=[N+]([O-])c1ccc(-c2ccc(C=Nc3cccc4ccccc34)o2)cc1
    -6, -8%, 4.8%, -13%
58	Cc1ccc(S(=O)(=O)/N=C(\CN2CCOCC2)N2CCCC2)cc1
    4, -6%, 1.2%, 2%
59	O=C1C2C3C=CC(c4ccccc4)(C2C(=O)N1c1cccc(Cl)c1)C1C(=O)N(c2cccc(Cl)c2)C(=O)C31 (configuration not stated)
    -8, 12%, -4.6%, -14%
60	CCc1nc2ccc(C)cc2c(C(=O)Oc2cccc3cccnc23)c1C
    0, -3%, 0.3%, -2%

The listing continues:
Below each compound – GLA inh pH 4.5, miR-21 FLuc, Rango-impB inh, Rango dissoc inh
61	CCOC(=O)c1c(-c2ccccc2)oc2ccc(OCC(=O)NNC(=O)CCCC(=O)O)cc12
    ·, 5%, -0.4%, 4%
62	CCN(C(=O)c1cc2cc(OC)ccc2oc1=O)c1cccc(C)c1
    -4, 0%, -2.2%, 11%
63	Nc1c(N(CCC2=CCCCC2)C(=O)COc2ccc(F)cc2)c(=O)[nH]c(=O)n1Cc1ccccc1
    ·, ·, 0.4%, -20%
64	COc1ccc(CN(Cc2ccc(OC)cc2)S(=O)(=O)c2ccc(-n3cnnn3)c(C)c2)cc1
    -5, -3%, -0.8%, 17%
65	O=[N+]([O-])c1cc(C(F)(F)F)ccc1-n1nnc2ccccc21
    -3, -13%, 1.5%, -8%
66	CCC1Oc2ccc(C)cc2N(CC(=O)N(Cc2ccc(C)o2)C2CCCC2)C1=O (configuration not stated)
    -11, 18%, 0.1%, -2%
67	Cc1cccc2c(C(=O)N3CCN(C(=O)c4ccco4)CC3)cc(-c3cccc(Br)c3)nc12
    0, 21%, ?, 14%
68	Cc1ccc2c(c1)Cc1nc3ccccc3nc1-2
    ?, -2%, -4.1%, 0%
69	CCS(=O)(=O)NCCc1csc(-c2ccccc2)n1
    -10, -38%, -1.8%, 0%
70	CN1CCN(C(=S)Nc2ccc(S(N)(=O)=O)cc2)CC1
    4, 3%, -1.8%, -8%
71	O=C(NC(=S)Nc1cccc([N+](=O)[O-])c1)c1ccco1
    -6, -27%, -0.6%, -3%
72	CC(C)CN1C(=S)SC(C)(C)C1n1oc(=O)n(-c2ccc(Cl)cc2)c1=O (configuration not stated)
    -2, -3%, -0.4%, -4%
73	O=C(CCCCn1c(=O)c2ccccc2n(CC(=O)NC2CCCC2)c1=O)NC1CCCC1
    -18, -3%, -1.0%, -9%
74	Cc1ccc2c(c1)sc1nc(=O)n(-c3ccccc3)c(=O)n12
    -2, -68%, 0.7%, -2%
75	Cc1ccc(-c2csc(NC(=O)COC(=O)c3cccc(S(=O)(=O)N4CCOCC4)c3)n2)cc1
    -6, -29%, -5.3%, 3%
76	Cc1ccc(S(=O)(=O)c2c[nH]c3ccc(C)cc3c2=O)cc1
    ·, -2%, 0.8%, -9%
77	COc1ccc(CC(=O)NCc2nnc(SCC(=O)Nc3nccs3)n2C)cc1
    0, 7%, -4.2%, 12%
78	Cc1ccc(NC(=O)CN(C)S(=O)(=O)c2cccs2)c(Br)c1
    ·, -49%, 0.8%, -4%
79	CCN(CC(=O)Nc1sc2c(c1C#N)CCCC2)Cc1nc2ccccc2c(=O)[nH]1
    -4, -15%, 2.5%, -2%
80	CSc1ccccc1NC(=O)c1ccc(N2CCCC2=O)cc1
    ·, ·, -4.0%, 5%
81	N#Cc1cc([N+](=O)[O-])cnc1N(CCO)CCO
    -10, -1%, 3.2%, -18%
82	COc1ccc(NC(=O)c2ccc3nc[nH]c3c2)cc1
    ·, -63%, -4.1%, -1%
83	CN1CCN(S(=O)(=O)c2cccc(C(=O)Nc3cc(C(F)(F)F)ccc3N3CCCCC3)c2)CC1
    ·, ·, 1.1%, 1%
84	COc1ccc(CCNC(=O)C(=O)NCC2OCCN2S(=O)(=O)c2cccs2)cc1 (configuration not stated)
    ·, -2%, ?, 5%
85	COc1ccc(Oc2c(C)oc3cc(OC(=O)N4CCOCC4)ccc3c2=O)cc1
    -1, -4%, 6.4%, -16%
86	COn1c(-c2ccc(C)cc2)nc2ncccc21
    ·, -9%, ?, -28%
87	Cc1cc2c(=O)n(C)c(SCC(=O)Nc3ccc(F)cc3)nc2s1
    ·, ·, 3.6%, 0%
88	COc1ccccc1NCCC(=O)OCC(=O)NC1CCCC(C)C1C (configuration not stated)
    -8, 3%, -2.4%, 10%
89	COc1ccc(C(=O)Oc2ccc(/C=N/NC(=O)c3ccccc3OC)cc2[N+](=O)[O-])cc1
    -8, -8%, 1.5%, 3%
90	CC1=C(C(=O)Nc2ccccc2C(=O)NCCCOC(C)C)SCCO1
    ·, 0%, 0.0%, -17%
91	CCOc1ccc(NC(=O)CN(C)C(=O)c2cc(C)nc3ccccc23)cc1OCC
    ·, ·, 0.3%, -1%
92	C/C(=N\Nc1ccc(Cl)c(C(=O)O)c1)c1cc2ccccc2o1
    -11, -57%, -5.2%, 26%
93	CN(Cc1ccccc1)C(=O)COC(=O)c1cc(=O)[nH]c2ccccc12
    ·, ·, -1.0%, -5%

Screening results deposited in PubChem BioAssay by National Center for Advancing Translational Sciences (NCATS).
